Compound activity (PubChem BioAssay)
ALR inh: inhibitors of human sulfhydryl oxidase ALR; P55789; purified ALR, DTT oxidation, H2O2 HRP-luminol luminescence; inhibition, % (test concentration not listed); 290,000 tested, 3.8% active; AID 485317;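 active means mean and each replicate at 75% or more; inconclusive means only one of the two met; inactive means neither met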;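 further: stock transfer was 7.5 nL into about 7.5 µL; 0% = neutral wells and 100% = wells with inactivated enzyme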
Target sequence (P55789 whole entry, looked up): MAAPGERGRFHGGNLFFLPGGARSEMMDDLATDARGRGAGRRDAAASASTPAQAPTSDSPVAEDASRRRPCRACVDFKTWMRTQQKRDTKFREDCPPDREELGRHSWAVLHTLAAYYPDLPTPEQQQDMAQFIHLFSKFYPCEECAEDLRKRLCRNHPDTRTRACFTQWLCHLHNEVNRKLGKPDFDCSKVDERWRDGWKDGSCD
LANA-H2A inh: blocks KSHV LANA binding to histone H2A/H2B. 320,000 tested, 0.6% active. inhibition, % (test concentration not listed). cell-free LANA-H2A/H2B peptide, fluorescence polarization. Q9QR71. AID 2629; in the data active means inhibition mostly above about 10%, no sharp cut-off; inactive means mostly below about 6.7%;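 further: stock transfer was 7.5 nL into about 10 µL; 0% = median of vehicle wells and 100% = median of positive control wells; one replicate is shown; the record names a cut of 25% in any replicate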
Vif A3G: HIV-1 Vif–A3G interaction blockers – biochemical, TR-FRET, GST-Vif 1-94, biotin-A3G peptide, dose response retest, primary screen (AID 1117319); inhibition, %, or IC50 in µM where a hit was titrated; TR-FRET GST-Vif / biotin-A3G peptide binding; higher % means a stronger effect; test concentration not given here; strong numbers were not always called active; 260,000 tested, 0.57% active;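 active means above the screen mean plus three standard deviations and confirmed in dose response; inconclusive means results disagree or hit not tested in dose response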;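 further: Vif residues 1-94 fused to GST binding biotinylated APOBEC3G peptide 110-148; 0% = full assay without inhibitor and 100% = GST in place of GST-Vif; retest series ran down from 100 µM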
HNF4A DNA FP: change in binding of human HNF4 alpha to DNA; P41235; HNF4a-FITC DNA binding, fluorescence polarization, 1 h; activity change, % at 10 µM; 360,000 tested, 0.3% active; in the data active means activity change above about 30%, passing the limit was not always enough;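 further: controls were the assay level and a saturating level of protein; the project sought stronger binding though the title names inhibitors; some compounds called inactive have numbers as strong as hits; positive values seem to mean higher polarization but the record does not say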
Target sequence (P41235 whole entry, looked up): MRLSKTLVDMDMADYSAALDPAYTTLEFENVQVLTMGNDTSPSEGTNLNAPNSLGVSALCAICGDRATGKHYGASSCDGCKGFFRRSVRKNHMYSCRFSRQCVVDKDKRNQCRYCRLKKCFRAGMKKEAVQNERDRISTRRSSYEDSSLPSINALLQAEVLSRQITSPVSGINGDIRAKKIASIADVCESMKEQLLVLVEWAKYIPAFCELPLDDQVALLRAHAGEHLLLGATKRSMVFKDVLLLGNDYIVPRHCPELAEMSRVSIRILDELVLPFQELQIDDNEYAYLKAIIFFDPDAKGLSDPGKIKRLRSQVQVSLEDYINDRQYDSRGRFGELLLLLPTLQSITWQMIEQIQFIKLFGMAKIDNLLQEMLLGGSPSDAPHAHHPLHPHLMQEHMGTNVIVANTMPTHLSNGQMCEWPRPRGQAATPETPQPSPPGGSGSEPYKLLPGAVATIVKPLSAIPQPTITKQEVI
RanGTP-Impb inh: inhibitors of RanGTP-importin-beta interaction, primary screen, biochemical, FRET, CFP-Ran, YFP-importin-beta, homogeneous; cell-free CFP-Ran/YFP-importin-beta FRET ratio; inhibition, % (concentration not given with the values); 300,000 tested, 1.1% active; AID 2216;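 active means most replicates above 15%; inconclusive means exactly half above 15%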;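 further: 0% = DMSO wells and 100% = Ran loaded with GDP instead of GTP; wells of about 40 µL received 100 nL stock; the first replicate is given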
Calb FLC: C. albicans growth modulation with fluconazole. C. albicans CaCi-2 (fluconazole-resistant clinical isolate) + fluconazole, Alamar Blue growth, 48 h. growth inhibition, % (test concentration not listed). 300,000 tested, 0.57% active;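 active means most replicates above 75%; inconclusive means exactly half above 75%; inactive means most below 75%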;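 further: all wells also contain fluconazole at 8 µg/ml as a sub-toxic cotreatment; 0% = median of DMSO wells and 100% = median of geldanamycin control wells; wells of about 8 µL received 7.5 nL stock; the first replicate is given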
B2AR ag: agonists of human beta-2 adrenergic receptor inducing internalization; Am2.2-beta2AR cells, FAP receptor internalization, flow cytometry; reference of the scale not given here; response, % (concentration not given with the values); 340,000 tested, 0.43% active; AID 504454;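 active means response above a set limit, near 3 SD of response in nonfluorescent compounds, cut at about 42% in these data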;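 further: stock transfer was 100 nL into about 11 µL; a reference agonist was the positive control; negative values mostly stem from fluorescent compounds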
Target sequence (P07550 whole entry, looked up): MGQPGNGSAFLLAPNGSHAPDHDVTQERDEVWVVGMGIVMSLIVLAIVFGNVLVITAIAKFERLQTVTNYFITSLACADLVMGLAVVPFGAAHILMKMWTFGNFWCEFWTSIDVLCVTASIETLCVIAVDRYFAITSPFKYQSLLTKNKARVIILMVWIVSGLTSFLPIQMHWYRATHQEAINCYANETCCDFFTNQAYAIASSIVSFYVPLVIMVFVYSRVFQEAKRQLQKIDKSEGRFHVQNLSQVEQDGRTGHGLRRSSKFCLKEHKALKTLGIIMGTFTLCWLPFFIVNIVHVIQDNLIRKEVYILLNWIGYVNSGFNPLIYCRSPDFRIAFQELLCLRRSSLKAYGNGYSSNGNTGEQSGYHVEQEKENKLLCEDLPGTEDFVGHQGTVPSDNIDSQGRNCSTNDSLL
Numbers without * were called inactive; u = inconclusive; x = no result given; & = joins results of further samples.

The opening two records (preview)
SMILES | ALR inh | LANA-H2A inh | Vif A3G | HNF4A DNA FP | RanGTP-Impb inh | Calb FLC | B2AR ag
Cc1ccc(S(=O)(=O)N2CCOCC2)cc1C(=O)OCC(=O)N1CCc2ccccc2C1 | x | x | -1% | 1.2 | -1.4 | -3 | -8
O=C1N=c2ccccc2=C1c1sc(=S)n(NC(=O)c2cccc(O)c2)c1O | x | x | 4% | -4.1 | 1.6 | -10 | 5

The whole of this part (from the top)
SMILES | ALR inh | LANA-H2A inh | Vif A3G | HNF4A DNA FP | RanGTP-Impb inh | Calb FLC | B2AR ag
Cc1ccc(S(=O)(=O)N2CCOCC2)cc1C(=O)OCC(=O)N1CCc2ccccc2C1 | x | x | -1% | 1.2 | -1.4 | -3 | -8
O=C1N=c2ccccc2=C1c1sc(=S)n(NC(=O)c2cccc(O)c2)c1O | x | x | 4% | -4.1 | 1.6 | -10 | 5
CC[C@]12c3[nH]c4ccccc4c3CCN1C(=O)C(CC(=O)NCCc1ccccn1)C[C@@H]2C(=O)N1CCN(C(=O)C2CC2)CC1 (some centres undefined) | -1 | -261 | 2% | 0.1 | x | x | 0
O=C(COc1ccc2c3c(c(=O)oc2c1)CCCC3)NCCCn1ccnc1 | -3 | 4.6 | x | -2.4 | 1.0 | 2 | 4
NC(=O)Cn1c(=O)n(CC(=O)N2CCCCC2)c(=O)c2sccc21 | -2 | -1.0 | x | -0.3 | -0.1 | -5 | 3
COc1cc(CC(=O)OCC(=O)Nc2cccc([N+](=O)[O-])c2)cc(OC)c1OC | x | 1.1 | 12µM* | 0.9 | -0.3 | -18 | 9
Cc1cc(C)n(-c2nc3ccccc3nc2Nc2ccc(CC(=O)O)cc2)n1 | 6 | 2.2 | -3% | 0.6 | u | 27 | 10
CC(C)(C)NC(=O)COC(=O)CCC(=O)c1ccc(F)cc1 | -2 | 1.1 | x | -0.5 | -1.7 | u | -3
CCc1cc(=O)oc2cc(OC(C)C(=O)NCCCn3ccnc3)ccc12 (centres undefined) | 3 | 2.4 | x | 0.8 | 3.3 | 0 | -2
CN1CCc2cc3c(c4c2[C@H]1[C@H](O)c1ccccc1-4)OCO3 | -34 | 7.0 | 10% | -32 | -2.4 | 95* | -5
COc1ccc2cc(C(=O)C3CCCN(C(=O)/C=C/c4ccccn4)C3)ccc2c1 (centres undefined) | x | 0.4 | 3% | -1.8 | 4.8 | -6 | -12
Cc1ccc(C(=O)N/N=C/C=C/c2ccccc2)o1 | -1 | 7.5 | 0% | 2.7 | 4.2 | -3 | -3
CCCC(NC(=O)COc1cc2c(c3oc(=O)c(C)c(C)c13)CCC(C)(C)O2)C(=O)O (centres undefined) | x | -3.4 | 0% | 5.5 | 1.9 | 18 | -24
CCc1nnc(NC(=O)C2CCN(c3cnccn3)CC2)s1 | -2 | 2.8 | -5% | 1.3 | 0.3 | -10 | -1
Cc1c(C(=O)NCc2cccnc2)oc2ccccc12 | -11 | -5.1 | 69% | 1.4 | 2.1 | 1 | -1
Nc1nccnc1C(=O)OCC(=O)NC1CCCc2ccccc21 (centres undefined) | -5 | 1.5 | 0% | 6.0 | x | x | 14
O=C1NCCCCC1NC1CC(=O)N(c2ccccc2)C1=O (centres undefined) | -11 | -3.0 | 1% | -0.3 | x | x | 1
CCCCCc1cc(=O)oc2c(C(CCN3CCCC(C)C3)c3ccc(N(C)C)cc3)c(OC)cc(OC)c12 (centres undefined) | -1 | 1.1 | 16% | -2.9 | 0.1 | -2 | 17
COc1ccnc(CN(C)C(=O)C2CCC(=O)N(CCN(C)C)C2)c1 (centres undefined) | -4 | -2.9 | x | -1.0 | -0.7 | 8 | -3
O=C(O)C(C(O)c1ccccc1)[n+]1ccccc1 (centres undefined) | -1 | 5.7 | x | -2.6 | 2.2 | -8 | -4
CCOc1ccc(Br)cc1C(=O)N/N=C/c1ccccn1 | 2 | -1.3 | -8% | 0.2 | -3.9 | -2 | -9
CC(Oc1ccc(F)cc1)C(=O)Nc1cc(C(F)(F)F)ccc1-n1cncn1 (centres undefined) | x | x | 0% | 0.5 | -0.9 | 2 | -6
COc1ccc(N(C(=O)c2ccco2)C(C(=O)NC2CCCC2)c2ccc(N3CCOCC3)cc2)c(OC)c1 (centres undefined) | -11 | -1.4 | x | -4.8 | -2.3 | 3 | 16
CCOC(=O)CSc1ccc(C(=O)Nc2ccc(Cl)cc2)cn1 | -7 | 2.4 | -21% | -0.4 | 0.8 | 0 | 11
CCCCNC(=S)N=Nc1c(O)n(Cc2ccccc2)c2ccccc12 | -10 | -4.0 | x | -2.6 | -4.8 | -12 | -14
S=C(NCc1ccco1)Nc1ccccc1 | -12 | 0.8 | x | 1.4 | -0.6 | 7 | 7
C=CCn1c(COc2ccccc2OC)nc2ccccc21 | -3 | -1.4 | x | 2.1 | -2.9 | -1 | 4
CC(=O)Nc1cccc(/C(C)=N/NC(=O)c2ccc3c(c2)OCO3)c1 | 0 | 1.8 | 3% | -4.3 | -0.2 | 15 | -2
CCO[C@H]1OC(C(=O)NCc2nc3ccccc3[nH]2)=C[C@@H](c2ccc3c(c2)OCO3)[C@@H]1CCCO | -9 | -12 | x | -5.2 | 3.0 | 8 | -6
CC(=O)c1cccc(NC(=O)C(C)OC(=O)c2ccc3ncsc3c2)c1 (centres undefined) | 3 | 0.2 | -6% | 3.5 | x | x | 3
CCO[C@@H]1OC(C(=O)N2CCN(Cc3ccc4c(c3)OCO4)CC2)=C[C@H](c2coc3ccccc3c2=O)[C@H]1CCCO | 0 | 5.4 | 19% | -4.3 | 3.2 | -10 | -12
CCOC(=O)Cn1c(=NC(=O)C2COc3ccccc3O2)sc2cc(S(N)(=O)=O)ccc21 (centres undefined) | -14 | -3.8 | -3% | 1.6 | 7.3 | 4 | -30
O=C(N/N=C/c1cccc(C(F)(F)F)c1)C1CCN(c2ncc(C(F)(F)F)cc2Cl)CC1 | -1 | 5.5 | 1% | 2.1 | -1.9 | -14 | 1
CCCCCN(C(=O)CCC(=O)OCC(=O)N1CCC(C)CC1)c1c(N)n(CCCC)c(=O)[nH]c1=O | -17 | 3.5 | 2% | -2.9 | -3.5 | -4 | -3
COc1cccc(-c2nc3ccccc3c(=O)o2)c1 | 0 | 0.1 | 5% | 0.6 | -2.7 | 1 | 14
O=C(CSc1nnc(NC2CCCCC2)s1)Nc1ccc(N2CCOCC2)cc1 | 12 | 1.7 | 13% | 4.0 | u | 22 | -6
Cc1ccccc1OCCn1nc(C(=O)O)c2ccccc2c1=O | 3 | -1.5 | 3% | 1.7 | 0.7 | -5 | -1
COc1cccc(C2N(c3ccccn3)C(=O)C3CCCN32)c1OC (centres undefined) | 0 | 1.0 | 7% | -1.5 | u | 3 | -2
O=C(CSc1ncc(-c2ccc(F)cc2)n1Cc1ccco1)Nc1nccs1 | u | 0.5 | 2% | -3.5 | 3.5 | 11 | -21
O=C(CNC(=O)c1ccc(F)cc1)NCc1ccc(S(=O)(=O)N2CCOCC2)cc1 | x | x | -10% | 4.3 | x | x | 5

By substructure, the compounds so far with a Cl atom
SMILES | ALR inh | LANA-H2A inh | Vif A3G | HNF4A DNA FP | RanGTP-Impb inh | Calb FLC | B2AR ag
CCOC(=O)CSc1ccc(C(=O)Nc2ccc(Cl)cc2)cn1 | -7 | 2.4 | -21% | -0.4 | 0.8 | 0 | 11
O=C(N/N=C/c1cccc(C(F)(F)F)c1)C1CCN(c2ncc(C(F)(F)F)cc2Cl)CC1 | -1 | 5.5 | 1% | 2.1 | -1.9 | -14 | 1

Next section.
SMILES | ALR inh | LANA-H2A inh | Vif A3G | HNF4A DNA FP | RanGTP-Impb inh | Calb FLC | B2AR ag
CC1CN(S(=O)(=O)c2ccc(C(=O)Nc3nccs3)cc2)CC(C)O1 (centres undefined) | 1 | 2.3 | -15% | -16 | u | -4 | -6
CCOCCCNC(=S)NCCCNc1nc2c(C)cc(C)cc2cc1C#N | x | x | 8% | 1.3 | x | x | 16
COc1ccc(S(=O)(=O)N(CC(=O)NCc2ccco2)c2ccc(C)cc2)cc1OC | -15 | 2.4 | -4% | -2.0 | 1.9 | 2 | 6
Cc1cc([N+](=O)[O-])ccc1NC1CCCC1 | -22 | 0.1 | 9% | 5.1 | 1.5 | -7 | -8
O=C(N/N=C/c1coc2ccccc2c1=O)c1cn(-c2ccccc2)nc1-c1ccccc1 | x | -2.9 | x | -8.2 | 4.4 | 8 | 57*
O=S(=O)(c1cccc(S(=O)(=O)N2CCN(c3ncccn3)CC2)c1)N1CCOCC1 | 0 | -18 | 14% | -1.8 | -1.7 | -56 | 2
Cc1nn(CC(C)C)c(Cl)c1C(=O)N(c1ccc(Cl)cc1F)S(C)(=O)=O | -3 | 5.4 | 14% | -1.4 | 0.2 | -1 | 5
COc1cccc(CN(C)C(=O)Nc2cccc(C(F)(F)F)c2)c1OC | 19 | 0.7 | -4% | 4.2 | -3.5 | u | 4
COc1ccc(CN2C(=O)C(CC(C)C)Nc3ncnc(N4CCN(c5ccccc5)CC4)c32)cc1 (centres undefined) | -2 | 4.2 | x | 3.2&-1.8 | 0.5 | 18 | 4
Cc1ccc(SC(C)c2nc(-c3ccccc3)no2)cc1 (centres undefined) | -1 | -1.0 | -4% | 1.6 | 0.2 | -4 | 2
CCOP(=O)(OCC)C(Nc1cccc(C)c1)c1ccc(F)cc1 (centres undefined) | 0 | 4.4 | x | -1.5 | -0.3 | 20 | -11
O=C(C(=O)N(Cc1ccccc1)Cc1ccccc1)c1c(-c2ccccc2)[nH]c2ccccc12 | x | x | -1% | 0.1 | x | x | 19
COc1cc(C(=O)NCc2nnc(SCC(=O)N3CCCCC3)o2)cc(OC)c1OC | -3 | 0.2 | 24% | 18 | -0.2 | 3 | -8
COCCN(CC(=O)NCc1ccccc1)C(=O)CCC(=O)Nc1nccs1 | -8 | 5.9 | 2% | -3.8 | -0.2 | -3 | 10
O/N=C\c1ccc2noc(-c3ccc(Cl)cc3)c2c1 | -1 | 3.9 | -8% | -0.1 | 3.5 | -4 | 4
CCCC(c1nnnn1Cc1cccs1)N1CCN(c2ccc(OC)cc2)CC1 (centres undefined) | 39 | 6.3 | -3% | 2.8 | -3.7 | 10 | -4
Cc1nc2ccc(NC(=O)c3nn(C(C)C)c(=O)c4ccccc34)cc2s1 | -13 | 2.5 | x | 2.7 | -3.5 | -6 | -6
COc1ccc(CC(=O)NNS(=O)(=O)c2ccccc2)cc1OC | 20 | 6.2 | 9% | -0.6 | 8.7 | 10 | 4
COc1ccc(CN(CC2CCC(C(=O)O)CC2)C(=S)Nc2cc(C)cc(C)c2)cc1 (centres undefined) | x | 9.7 | -15% | 4.4 | -1.1 | 7 | 9
N#Cc1ccc(NC(=O)COC(=O)C2Cc3ccccc3CN2C(=O)c2ccccc2)cc1 (centres undefined) | -2 | -2.0 | x | 17 | 0.2 | 4 | 1
O=C(CSc1nc2ccsc2c(=O)n1-c1ccccc1)N1CCCC1 | -4 | 2.7 | 3% | 0.9 | 4.1 | -1 | -4
Cc1ccc(CN2CCN(Cc3nc(C(C)C)cs3)CC2CCO)cc1 (centres undefined) | 3 | -5.1 | 1% | -5.0 | 2.2 | 17 | -11
O=Cc1ccc(OC(=O)c2cccnc2)cc1 | 5 | -2.8 | 0% | 0.6 | -0.2 | 11 | -5
CCCOC(=O)c1ccc(OCC(O)CN2C(=O)NC(C)(C)C2=O)cc1 (centres undefined) | -20 | -0.7 | 4% | -1.3 | 1.1 | -12 | 2
CCOc1ccc(C(=O)NCc2ccco2)cc1OC | -5 | 1.8 | x | -2.2 | -3.7 | -1 | -5
O=c1c2c3c(sc2n(CCN2CCCC2)c(=O)n1Cc1ccccc1)CCCCC3 | -16 | -4.5 | u | 5.0 | 0.3 | -8 | 6
S=C1NC(c2cccs2)=CC(c2ccc(Br)cc2)N1 (centres undefined) | 0 | -0.2 | 13% | -0.2 | 6.8 | 6 | 0
COc1cccc(C(=O)N2CCN(C(=O)c3cccc(F)c3)CC2)c1 | -3 | -0.3 | 8% | -3.6 | 7.1 | 8 | -6
